gsp antagonist: qHTS for Antagonists of gsp, the Etiologic Mutation Responsible for Fibrous Dysplasia/McCune-Albright Syndrome: qHTS; gsp-mutant cells, cAMP HTRF, 30 min; control for the full effect not named in the record; Potency, µM (titrated, usually from 76.9 µM), for inactives: at the highest dose activity change, negative = inhibition, usual class: inhibitors; hit rate 0.4% among 340,000; AID 624288, 2012; active = falling curve of any shape with a large fitted effect; inconclusive = falling curve, mostly with a smaller effect; inactive = flat or rising curve; cell line not stated here;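 further: intracellular cAMP measured with PDE inhibitor Ro 20-1724 present during compound exposure; potency means the concentration at half of the fitted maximal effect; on the % scale 0 is the no-effect control and ±100 the full control effect; nearly all actives have a fitted effect of over 65% in size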
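Measurement of cellular cAMP by homogeneous time-resolved fluorescence following a 30 min compound exposure at 37C. The PDE inhibitor […] was present throughout; the assay buffer was DPBS with 0.05% BSA and 0.005% Tween 20.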
TRPML1 blocker: qHTS for Inhibitors of the Human Mucolipin Transient Receptor Potential 1 (TRPML1); TRPML1-inducible cells, Ca2+ dye fluorescence, FDSS; stronger effect = lower value; inhibition of EC80 agonist-evoked calcium signal; Mucolipin-1 (Homo sapiens), Q9GZU1; activity change, negative = inhibition, % (test concentration not listed); hit rate 0.02% among 390,000; in the data active means activity change below about -50%; inconclusive means about -30% to -50%; inactive means above about -30%;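 further: stimulus is agonist 54-4 at its EC80 concentration; on the % scale 0 is the no-effect control and ±100 the full control effect; compound concentration not given in the record; the text of the record puts the active cut at -80%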
Target sequence (Q9GZU1 whole entry, looked up): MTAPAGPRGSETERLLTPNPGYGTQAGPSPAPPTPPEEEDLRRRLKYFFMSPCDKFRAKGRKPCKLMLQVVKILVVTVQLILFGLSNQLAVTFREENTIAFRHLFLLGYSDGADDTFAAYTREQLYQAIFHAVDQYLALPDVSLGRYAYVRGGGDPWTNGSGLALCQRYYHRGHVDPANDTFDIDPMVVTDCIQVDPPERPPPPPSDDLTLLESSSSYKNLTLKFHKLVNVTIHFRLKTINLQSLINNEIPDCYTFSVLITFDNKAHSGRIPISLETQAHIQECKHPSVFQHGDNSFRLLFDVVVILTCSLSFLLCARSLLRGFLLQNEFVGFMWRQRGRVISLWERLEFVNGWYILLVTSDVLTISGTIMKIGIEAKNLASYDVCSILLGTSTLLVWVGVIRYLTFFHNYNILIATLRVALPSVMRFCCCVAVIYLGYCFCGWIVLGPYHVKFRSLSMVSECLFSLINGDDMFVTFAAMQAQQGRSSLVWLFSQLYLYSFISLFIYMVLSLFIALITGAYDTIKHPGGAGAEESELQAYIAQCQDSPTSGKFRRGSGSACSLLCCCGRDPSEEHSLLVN
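TRPML1-DL cells, Tet-induced overnight (~16 h, 37 °C) at 1,500 cells/well, were loaded with Ca8 no-wash dye plus quencher for 45-90 min at room temperature. Compounds were pinned during FDSS kinetic reading; agonist 54-4 at EC80 (4 uM final) then added.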
ClpP mod: qHTS Assay for Activators of ClpP; ATP-dependent Clp protease proteolytic subunit (Bacillus subtilis (strain 168)), P80244; purified B. subtilis ClpP, FRET peptide cleavage, 20 min; Potency, µM (titrated, usually from 57.5 µM), without a hit: top-dose activity change, negative = active; hit rate 1.9% among 340,000; AID 651965, 2013; active = well fitted falling curve with a large enough effect; inconclusive = small, poorly fitted or top-dose-only effect; inactive = no such curve, though single readings can be large or run the other way; further: potency means the concentration at half of the fitted maximal effect; the source files actives as falling curves though it sought activators and does not explain the sign; nearly all actives have a fitted effect of over 65% in size; many hits overshoot -100%
Target sequence (P80244 whole entry, looked up): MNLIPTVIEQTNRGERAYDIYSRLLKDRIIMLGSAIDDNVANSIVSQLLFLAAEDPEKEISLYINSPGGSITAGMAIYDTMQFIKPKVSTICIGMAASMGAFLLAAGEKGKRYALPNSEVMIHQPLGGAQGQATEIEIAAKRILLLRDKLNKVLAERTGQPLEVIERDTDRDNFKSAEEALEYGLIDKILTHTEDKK
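Buffer: 100 mM Tris/HCl pH8, 100 mM KCl, 0.05% low protease BSA, 2.5% glycerol, 0.01% Tween-20. ClpP 10 microg/mL final; 20 min RT; delta FRET normalized to ADEP and DMSO controls.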
TRPML1 agonist: qHTS for Agonists of the Human Mucolipin Transient Receptor Potential 1 (TRPML1); Mucolipin-1 (Homo sapiens), Q9GZU1; TRPML1-expressing cells, Ca2+ dye fluorescence, FDSS; host cell line not named in the record; reference of the full effect not given here; activation, % (test concentration not listed); hit rate 0.12% among 410,000; AID 624414, 2012; in the data active = activation above about 50%; inconclusive = about 30% to 50%; inactive = below about 30%; further: 0% is about no effect; the text of the record puts the active cut at 80%
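In this qHTS format, compounds were pin-transferred onto Ca8-dye-loaded TRPML1-DL cells induced with Tet overnight, and intracellular Ca2+ fluorescence was recorded kinetically for 110 s after a 10 s baseline. A subsequent 4uM final 54-4 (EC80) addition followed by a second 110 s read served as the antagonist phase.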
Menin-MLL FL inh: qHTS Assay for Inhibitors Targeting the Menin-MLL Interaction in MLL Related Leukemias: Competition With Fluorescein Labeled MLL-derived Peptide; AID 1766, 2009; 290,000 tested, under 10 active; Fluorescence polarization, fluorescein-MLL peptide displacement from menin; FP activity change, % at 61.4 µM; inconclusive = falling polarisation curve, or a change in total fluorescence; inactive = total fluorescence flat and polarisation flat or rising; no compound was filed as active; the % refers to the polarisation; negative = inhibition;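 further: % of control where 0% means no effect; inhibitors lower the polarisation; unlabelled MLL peptide was the positive control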
gsp ag: qHTS for Agonist of gsp, the Etiologic Mutation Responsible for Fibrous Dysplasia/McCune-Albright Syndrome: qHTS; Potency, µM (series often up to 76.9 µM), for the others: at the highest dose activation (cAMP increase), actives largely listed as activators; AID 624287, 2012; hit rate 0.13% among 340,000; gsp mutant cells, cAMP HTRF, 30 min; control for the full effect not named in the record; active = well fitted activation curve with a large enough effect; inconclusive = small, poorly fitted or top-dose-only effect, or another doubt; inactive = no such curve, though single readings can be large or run the other way; cell line not stated here;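 further: phosphodiesterase inhibitor Ro 20-1724 added with compounds to block cAMP breakdown; potency means the concentration at half of the fitted maximal effect; nearly all actives have a fitted effect of over 60% in size; about a fifth of the inactives were tested at one dose only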
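Cells in DMEM/10% FBS with G418 were pretreated with compounds in DMSO plus […] (300 uM stock) for 30 min at 37C. cAMP was measured by HTRF (cAMP-d2 plus anti-cAMP antibody-K) after 30 min at room temperature.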
* = called active by the depositor; ? = inconclusive; nt = no result given; & = joins results of further samples; [ ] = remark or other dose.

SMILES	gsp antagonist	TRPML1 blocker	ClpP mod	TRPML1 agonist	Menin-MLL FL inh	gsp ag
C=CC[C@@H](CC(=O)N[C@@H](CO)Cc1ccccc1)C(=O)NC[C@@H](OC(=O)[C@@H](CC=C)CC(=O)OC(C)(C)C)c1ccccc1	1%	-4	1.2%	-0.4	nt	-23%
CCC(=O)N1CCc2cc(Br)c(S(=O)(=O)NCCN3CCCCC3CC)cc21 (centres undefined)	7%	-3	-1.1%	1.5	nt	-45%[inhibitor]
CCCCNC(=O)Nc1ccccn1	-2%	5	-1.1%	-0.6	0.8	5%
C[C@H](CO)N1C[C@H](C)[C@@H](CN(C)C(=O)Nc2ccc(F)cc2)Oc2ncc(-c3ccc(F)cc3)cc2C1=O	nt	-8	-2.2%	0.9	nt	-32%[inhibitor]
Cc1nc2ccccc2c(=O)n1NC(=O)c1cccnc1Cl	10%	-7	nt	0.8	-0.7	4%[15.4 µM]
CSc1cccc(NC(=O)C2CCCN2S(=O)(=O)c2ccc3c(c2)CCC(=O)N3)c1 (centres undefined)	-12%	-9	0.2%	0.4	4.8	2%
CC(O)CNc1nc2ccccc2n1CC(=O)NC12CC3CC(CC(C3)C1)C2 (centres undefined)	-5%	2	-1.1%	-0.4	-0.6	-6%
O=C(Nc1ccc(Cl)cc1)c1ccc2ncsc2c1	-2%	-2	1.7%	-0.4	3.7	3%
CCCNC(=O)c1ccc2c(=O)n(Cc3ccco3)c(=S)[nH]c2c1	-19%	-9	0.5%	0.8	2.6	9%[15.4 µM]
CN(Cc1nc(-c2ccc(Cl)cc2)no1)C(=O)c1ccco1	8%	31	nt	2.3	nt	21%
O=C(O)c1cccc(NS(=O)(=O)c2ccc(Cl)c(C(=O)Nc3cccc([N+](=O)[O-])c3)c2)c1	1%	-12	1.0%	-0.2	nt	-33%[15.4 µM]
O=C(N/N=C/c1ccc2c(c1)OCO2)c1ccc(COCC(F)(F)C(F)F)cc1	8%	-13	3.9%	1.2	nt	7%
NNC(=O)c1cc2c(ccc3ccccc32)o1	nt	23	nt	1.2	7.6	13%[15.4 µM]
O=C(Cn1nnc(-c2ccccc2NC(=O)c2ccccc2F)n1)NC1CCCC1	11%	4	nt	1.1	-2.0	21%
CCN(CC)c1ccc(NC(=O)c2cnccn2)cc1S(=O)(=O)Nc1ccc(OC)cc1	?	29	0.8%	-0.2	-2.2	-35%
Cc1ccc(S(=O)(=O)N2[C@@H](c3ccc(F)cc3)C(C(=O)O)=CC[C@H]2c2ccc(C(C)C)cc2)cc1	-6%	-2	-1.4%	1.0	nt	nt
C/C(CCC12CC3CC(CC(C3)C1)C2)=N\NC(N)=S	1%	1	0.6%	-0.4	1.0	-3%
COc1ccc(C(=O)C2CCCN(C(=O)CCc3ccccn3)C2)c(C)c1 (centres undefined)	-12%	-2	0.0%	1.9	0.3	-2%
Cn1nc(N)nc1N1CCN(c2ccc(F)cc2)CC1	-14%	?	nt	-0.6	-0.1	-4%[15.4 µM]
O=C(O)c1cc(S(=O)(=O)N2CCOCC2)c(Sc2ccccn2)cc1Sc1ccccn1	-12%	9	0.9%	-0.5	-2.3	1%

Among those listed so far, these contain an aryl methoxy group.
SMILES	gsp antagonist	TRPML1 blocker	ClpP mod	TRPML1 agonist	Menin-MLL FL inh	gsp ag
CCN(CC)c1ccc(NC(=O)c2cnccn2)cc1S(=O)(=O)Nc1ccc(OC)cc1	?	29	0.8%	-0.2	-2.2	-35%
COc1ccc(C(=O)C2CCCN(C(=O)CCc3ccccn3)C2)c(C)c1 (centres undefined)	-12%	-2	0.0%	1.9	0.3	-2%

Following part.
SMILES	gsp antagonist	TRPML1 blocker	ClpP mod	TRPML1 agonist	Menin-MLL FL inh	gsp ag
O=C(Nc1nnc(-c2ccco2)o1)c1cccc(Cl)c1	12%	-11	nt	-0.5	1.5	-3%[15.4 µM]
O=C(O)/C=C\C(=O)Nc1ccc(N2CCN(c3cccc(Cl)c3)CC2)cc1	-8%	24	nt	-0.5	1.2	-3%[15.4 µM]
Cc1ccc([C@H]2C[C@@H](n3cc(-c4ccc(F)cc4)nn3)[C@H](O)CN2C(=O)c2cccs2)cc1	nt	15	0.7%	3.0	nt	-35%[inhibitor]
O=C(c1ccc(F)cc1Cl)N1CCN(CCc2ccccc2)CC1	4%	-7	nt	0.6	-1.4	-44%[inhibitor]
Cc1ccc2nc(C)cc(N/N=C/c3ccc(F)cc3)c2c1	nt	0	nt	1.6	-4.1	9%[15.4 µM]
COc1ccc(N=C2C(=O)Nc3ccccc32)cc1	5%	-8	-1.2%	0.1	-1.7	-33%[inhibitor]
COc1ccc(-c2noc(CC(=O)Nc3cc(OC)ccc3OC)n2)cc1	nt	-1	-21%	-0.2	nt	nt
Cn1c(=N)n(CC(O)c2ccccc2)c2ccccc21 (centres undefined)	11%	53	0.6%	0.9	2.5	9%
CCC(CO)Nc1ncnc2c1cnn2-c1ccc(Cl)cc1 (centres undefined)	-2%	7	4.6%	-0.1	1.2	1%
CC1(C)C2CCC1(C)C(SC(=N)N)C2 (centres undefined)	9%	-22	0.6%	-0.5	nt	-4%
Cc1nc(C(=O)N(C)C)nn1-c1ccc(Cl)cc1Cl	0%	1	-1.8%	-0.9	0.9	-48%[inhibitor]
CCCc1cc(C(=O)N/N=C/c2ccc(C)o2)c2ccccc2n1	18%	0	1.1%	2.4	2.9	?
C/C(=N\NC(=O)c1ccccc1Cl)c1ccccn1	7%	18	0.0%	3.4	1.5	?
O=C(CN1C(=O)COc2ccccc21)c1ccc(Cl)cc1	4%	11	-0.4%	6.4	0.0	-24%
O=C(OCC(=O)N1CCCC1)c1ccc(S(=O)(=O)Nc2ccccc2)cc1	11µM*	1	0.6%	-0.2	-0.6	-72%[inhibitor]
CCOC(=O)c1cc(C#N)c(SCc2cccc3ccccc23)nc1C	7%	7	?	0.9	-0.6	?
COc1ccc(Cl)cc1NC(=O)CN1C(=O)C(C)(C)c2cc(S(=O)(=O)N3CCCCC3)ccc21	nt	-7	-2.9%	1.1	nt	nt
COc1ccc(C(C)=O)cc1CC(=O)Nc1cccc(S(=O)(=O)N2CCOCC2)c1	-3%	8	-1.5%	0.3	nt	44%
c1ccc(NCn2cncn2)nc1	3%	67	-1.7%	0.3	-2.8	-5%
Cc1ccc2c(C)c(C(=O)Nc3ccc(S(=O)(=O)Nc4onc(C)c4C)cc3)oc2c1	?	-3	0.2%	0.3	3.5	-4%
N#Cc1ccc(-c2cn3c(n2)SCC3)cc1	3%	9	4.2%	-0.5	3.3	?
CS(=O)(=O)c1ccc(Cl)c(NC(=O)COC(=O)c2cccc(C#N)c2)c1	nt	7	nt	-1.0	-2.2	2%[15.4 µM]
COc1ccc(Cc2c(O)nc(SCC(C)C)[nH]c2=O)cc1	-9%	-6	-1.7%	0.1	-3.6	?
C[C@@H]1CC=C[C@H]2[C@H]1C(=O)N(Cc1ccccc1)[C@H]2c1ccc2ccccc2c1	-1%	43	-24%	2.9	2.9	nt
O=C(COC(=O)c1cc(-c2cccs2)nn1-c1ccccc1)Nc1cc([N+](=O)[O-])ccc1Cl	1%	14	nt	-0.9	3.0	4%
COc1ccc(C)cc1NC(=O)C(C)N(c1ccc(C)cc1)S(C)(=O)=O (centres undefined)	-5%	-5	-1.9%	-0.2	0.8	-35%[inhibitor]
Cc1cccc2c(=O)cc(CSc3ccccc3NC(=O)C(C)(C)C)[nH]c12	nt	-1	-3.0%	1.7	nt	nt
CCOC(=O)c1c(Nc2cc(C)cc(C)c2)nnc(-c2ccccc2)c1-c1ccccc1	nt	13	-0.6%	2.2	nt	nt
COC(=O)CON1C(=O)c2ccccc2C1=O	12%	-10	1.0%	4.3	-1.1	-24%
CC(C)c1nn2c(=O)cc(COC(=O)CNC(=O)c3ccccc3Cl)nc2s1	nt	-11	-9.9%	-0.2	nt	nt
Cc1ccc(S(=O)(=O)N2CCN(C)CC2c2ccccc2)cc1 (centres undefined)	12%	-16	-0.5%	-0.4	nt	1%
Cn1c(=O)oc2cc(S(=O)(=O)NCCC(=O)NCc3ccc(F)cc3)ccc21	16%	22&-4	1.4%&-0.2%	-0.5&-0.4	nt	31%
COc1ccccc1CNC(=O)COC(=O)Cn1cnc2ccccc21	5%	-3	-1.7%	0.1	-1.2	4%
CCCc1nnc(NC(=O)CCC(=O)Nc2ccc(F)cc2)s1	-6%	13	-0.8%	-0.1	-2.1	-9%
CCSc1nnc(N2C(=O)c3ccc(C(=O)c4ccc(C(=O)O)cc4)cc3C2=O)s1	7%	12	-0.3%	0.8	-0.9	23%
O=C(CNC(=O)c1ccc2c(c1)OCO2)Nc1ncccc1O	3%	-13	nt	-0.2	nt	17%[15.4 µM]
O=C(COc1ccc(S(=O)(=O)NC2CCCCC2)cc1)N1CCN(c2ccc(F)cc2)CC1	-2%	9	-2.1%	0.6	-4.4	-47%[inhibitor]
CC(CCc1ccccc1)NC(=O)CSc1nccc(=O)[nH]1 (centres undefined)	-5%	-6	-0.7%	1.1	-2.1	-3%
O=C(CN(C(=O)CCC(=O)Nc1nccs1)C1CCCC1)NCc1ccc2c(c1)OCO2	8%	-10	nt	-0.8	1.8	-1%[15.4 µM]
CCOc1ccccc1N1C(=O)CC(Sc2nccc(C)n2)C1=O (centres undefined)	10%	nt	0.8%	nt	-0.8	-14%
CC12CCC(=O)N1C(C(=O)NCc1ccc(Cl)cc1Cl)CS2 (centres undefined)	14%	-2	1.1%	-0.6	nt	15%[15.4 µM]
CC1CC(NC(=O)CCn2c(=O)oc3ccccc32)CC(C)(C)C1 (centres undefined)	-5%	19	-0.1%	0.1	-1.3	-15%
COC(=O)c1ccc2[nH]c3c(c2c1)CC(C)CC3 (centres undefined)	-21%	nt	-5.0%	nt	4.0	1%
CN1C2C=C(N(CCc3ccccc3)C(=O)c3ccc(Cl)cc3)CC1CC2 (centres undefined)	nt	23	nt	0.8	-7.2	-8%[15.4 µM]
O=C(Oc1ccc2cccc(OC(=O)N3CCOCC3)c2c1)N1CCOCC1	2%	6	-0.3%	0.1	3.5	-30%
CCCCNC(=O)Nc1nc2ccccc2s1	14%	-7	nt	0.0	-3.0	-16%

This is a random part of the collection; about 2.1% have a hit in one of these screens.
